From PubChem BioAssay
ALR H2O2 inh – inhibitors of human ALR sulfhydryl oxidase, primary screen, biochemical, H2O2 detection, HRP-luminol luminescence, single point; FAD-linked sulfhydryl oxidase ALR (Homo sapiens), P55789; purified ALR, DTT oxidation; inhibition, % (test concentration not listed); 290,000 compounds, 3.8% hits; AID 485317, 2010;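 active = mean and each replicate at 75% or more; inconclusive = only one of the two met; inactive = neither met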;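 note: stock transfer was 7.5 nL into about 7.5 µL; 0% = neutral wells and 100% = wells with inactivated enzyme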
Target sequence (P55789 whole entry, looked up): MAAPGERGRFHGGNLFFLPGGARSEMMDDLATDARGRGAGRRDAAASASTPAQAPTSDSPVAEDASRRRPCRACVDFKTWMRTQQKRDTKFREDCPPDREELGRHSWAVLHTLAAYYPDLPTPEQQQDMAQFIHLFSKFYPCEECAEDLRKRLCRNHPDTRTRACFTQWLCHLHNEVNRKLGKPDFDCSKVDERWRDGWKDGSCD
Calb FLC – C. albicans growth inhibition with fluconazole, primary screen, CaCi-2 strain, Alamar Blue fluorescence; growth inhibition, % (no concentration beside the values); AID 1979, 2009; 300,000 compounds, 0.57% hits; C. albicans CaCi-2 (fluconazole-resistant clinical isolate) + fluconazole, 48 h;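 active = most replicates above 75%; inconclusive = exactly half above 75%; inactive = most below 75%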;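 note: all wells also contain fluconazole at 8 µg/ml as a sub-toxic cotreatment; 0% = median of DMSO wells and 100% = median of geldanamycin control wells; wells of about 8 µL received 7.5 nL stock; the first replicate is given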
Beta apoptosis – inhibitors of cytokine-induced beta cell apoptosis, primary screen, luminescence; protection from apoptosis, % (no concentration beside the values); INS-1E cytokine-induced death, ATP luminescence, 48 h; percent of positive-control rescue, neutral wells zero; 300,000 compounds, 0.8% hits; AID 435005, 2010;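 active = all replicates at 75% or more, or half of them and the mean; inconclusive = half reach 75% but not the mean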;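 note: 0% = cytokine-treated negative control wells and 100% = positive control rescue; higher means more ATP so stronger rescue from cytokine killing; wells of about 40 µL received 100 nL stock; the first replicate is given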
LANA-H2B inh – blockers of LANA interaction with H2A/H2B – biochemical, FP readout, HTS, primary screen. Protein LANA1 (Human herpesvirus 8 type P (isolate GK18)), Q9QR71. cell-free LANA-H2A/H2B peptide, fluorescence polarization. inhibition, % (no concentration beside the values). 320,000 compounds, 0.6% hits; in the data active = inhibition mostly above about 10%, no sharp cut-off; inactive = mostly below about 6.7%;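 note: stock transfer was 7.5 nL into about 10 µL; 0% = median of vehicle wells and 100% = median of positive control wells; one replicate is shown; the record names a cut of 25% in any replicate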
Beta2AR agonist – beta2AR agonists driving receptor internalization, primary screen, cell-based, FAP fluorogen, flow cytometry; Beta-2 adrenergic receptor (Homo sapiens), P07550; Am2.2-beta2AR cells; reference of the scale not given here; response, % (test concentration not listed); 340,000 compounds, 0.43% hits;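 active = response above a set limit, near 3 SD of response in nonfluorescent compounds, cut at about 42% in these data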;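 note: stock transfer was 100 nL into about 11 µL; a reference agonist was the positive control; negative values mostly stem from fluorescent compounds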
Target sequence (P07550 whole entry, looked up): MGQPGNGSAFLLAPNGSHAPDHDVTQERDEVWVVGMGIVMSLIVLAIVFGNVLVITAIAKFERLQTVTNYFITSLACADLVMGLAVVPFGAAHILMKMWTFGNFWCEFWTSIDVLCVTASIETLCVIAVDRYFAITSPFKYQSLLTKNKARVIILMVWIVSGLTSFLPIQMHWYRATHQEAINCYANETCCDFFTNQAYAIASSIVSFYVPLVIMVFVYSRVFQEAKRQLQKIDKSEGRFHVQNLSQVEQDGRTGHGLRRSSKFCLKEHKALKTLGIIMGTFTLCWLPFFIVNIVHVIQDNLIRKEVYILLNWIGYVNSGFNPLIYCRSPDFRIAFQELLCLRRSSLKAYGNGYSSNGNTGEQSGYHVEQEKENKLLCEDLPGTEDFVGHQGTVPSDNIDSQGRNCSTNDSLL
Bfl-1 A1 inh – caspase 3/7 activation in MEF A1-2A-BIM cells, primary screen, A1 inhibitor project, cell-based, luminescence, HTS. Caspase-Glo 3/7 luminescence, 3 h; percent of clofoctol response, vehicle zero. caspase activation, % (concentration not given with the values). 330,000 compounds, 0.066% hits. AID 2462, 2010;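 active = over half of replicate activation scores above 10%, or exactly half above 10 with the replicate mean above 10; inconclusive = replicate mean below 10 yet half the replicates above 10; inactive = over half of replicates below 10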;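 note: wells of about 30 µL received 50 nL stock; many hits fall short of the cut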
Ecoli rRNA inh – reduced GFP signal of wild-type E. coli, primary screen, bacterial rRNA inhibitor project, GFP/RFP fluorescence, OD600, single point | AID 720706, 2013 | 350,000 compounds, 1.6% hits | E. coli WT GFP vs humanized-ribosome RFP mutants, 24 h; active compounds read low; DMSO median 0, no signal -100 | GFP signal change (wild-type ribosome), % (no concentration beside the values);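 active = significant combined selectivity score with lowered wild-type GFP, culture density cut under 30%, mutant RFP and density less affected; inactive = any of these conditions unmet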; note: one replicate is shown; some compounds called inactive have numbers as strong as hits
T cruzi inh – inhibitors of intracellular T. cruzi growth, primary screen, luminescence, NIH3T3 host cells; T. cruzi beta-gal in NIH3T3, 90 h; 300,000 compounds, 1.4% hits; inhibition, % (no concentration beside the values);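 active = mean inhibition across valid replicates above about 55%, limit read from the data; inconclusive = mean below that limit but half or more replicates reach it; inactive = mean below it, under half of replicates reach it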;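 note: signal also drops with host cell toxicity which is not excluded here; 0% = plate median of DMSO wells and 100% = zero luminescence signal; higher percent means less beta-gal luminescence so fewer parasites; stock transfer was 50 nL into about 50 µL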
Ecoli rRNA inh OD600 – also measured in Ecoli rRNA inh; calls as there; OD600 change, %; measured here: OD600 growth;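 optical density of the mix in the first replicate; 0 = DMSO median and -100 = no signal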
Ecoli rRNA inh RFP – further read-out of Ecoli rRNA inh, marked with its call; RFP signal change, %; measured here: RFP humanized mutant strains;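 first replicate; 0 = DMSO median and -100 = no signal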
* marks the source's active call; other numbers are inactive results; u = inconclusive; x = no result given. These rows are one share of the data, so the mix of outcomes need not match the whole.

mol,Bfl-1 A1 inh,LANA-H2B inh,Ecoli rRNA inh,Calb FLC,Ecoli rRNA inh RFP,ALR H2O2 inh,Ecoli rRNA inh OD600,Beta2AR agonist,Beta apoptosis,T cruzi inh
CN(C)/C=C/C(=O)c1ccc2noc(-c3cccc(F)c3)c2c1,1.6,2.9,-3.5,28.7,-2.3,1.3,-5.9,2.5,-4.8,-0.3
Cc1cc(C)c(S(=O)(=O)Nc2nnc(CC(C)C)s2)c(C)c1,-0.6,2.1,-38.1,63.2,-5.8,-4.1,-69.7,-3.0,x,10.4
CCOC(=O)N1CCN(S(=O)(=O)c2ccc(OC)cc2)CC1,-0.3,2.2,5.7,4.1,0.6,2.2,1.8,-1.9,1.1,7.0
COc1cc(C(=O)NCC(=O)NC(C)c2ccc(-n3ccnc3)cc2)cc(OC)c1OC (centres undefined),-0.1,x,-4.4,-0.7,-2.3,x,2.9,-8.5,1.8,-1.9
CN(CC(=O)NCCN1CCN(c2ccccc2)CC1)S(=O)(=O)c1ccc2c(c1)CCC(=O)N2,-0.4,3.4,8.2,-4.8,2.0,98.0*,14.0,7.1,-5.2,-16.8
CCN(C(=O)CSc1nnc(SC(C)C)s1)C1CCS(=O)(=O)C1 (centres undefined),0.9,-1.6,4.5,x,0.1,2.8,5.7,5.0,-5.8,x
C=CCn1c(O)c(N=NC(=O)c2ccccc2NS(=O)(=O)c2cccs2)c2ccccc21,-0.2,-0.7,x,5.4,x,2.8,x,-21.6,-2.3,8.1
O=C(CSc1nnc2c(Cl)cc(Cl)cn12)N1CCN(c2ccc(F)cc2)CC1,-0.1,-7.1,x,4.6,x,19.1,x,-9.8,4.6,-0.7
O=C(c1ccc(C(F)(F)F)cc1)C1CCCN(C(=O)CCc2ccncc2)C1 (centres undefined),1.0,-2.5,-22.2,5.0,6.3,1.8,-33.4,-3.9,8.5,4.3
O=C(NC1CCCc2ccccc21)C1CCCN(S(=O)(=O)c2cnc[nH]2)C1 (centres undefined),0.9,6.6,2.4,6.7,3.9,-45.3,3.7,10.4,x,11.5
CSc1ccc(/C=c2\s/c(=C\C(=O)C(C)(C)C)n(CC(=O)NCCC3=CCCCC3)c2=O)cc1,0.4,-11.2,5.6,6.0,-3.7,x,1.1,-4.1,-3.4,27.0
CCOC(=O)c1ccccc1NS(=O)(=O)c1ccc(OCC)cc1,0.2,2.8,x,2.5,x,-7.7,x,5.0,4.4,-19.2
CCOC(=O)c1ccc(CN2C(=O)c3ccccc3S2(=O)=O)cc1,-0.4,-2.4,1.2,1.1,0.5,-4.6,-3.0,8.9,-0.6,-11.5
C=C(C)COc1ccc(-c2nc(N)nc(C)c2Oc2ccccc2OC)c(O)c1,0.6,3.2,x,55.5,x,-7.6,x,8.5,-2.3,36.6
O=c1[nH]cnc2c1sc1nc(C(F)F)cc(-c3ccccc3)c12,-0.6,-0.9,6.5,x,0.5,10.9,8.7,17.4,-0.8,x
N#Cc1ccc(NC(=O)COC(=O)CNC(=O)C2CCCCC2)cc1,-0.8,5.1,x,-3.9,x,-3.1,x,-1.0,-4.4,-1.9
COc1ccc(N(C(=O)c2cc3ccccc3oc2=O)C2C=CS(=O)(=O)C2)cc1 (centres undefined),-0.6,-3.8,7.2,2.5,-0.1,-6.7,6.2,-1.6,1.0,-32.0
O=C(CC1CCCCC1)N=C1SC2CS(=O)(=O)CC2N1c1ccccc1 (centres undefined),0.2,2.1,4.0,12.2,-3.6,2.4,1.4,-1.3,-8.7,13.6
Cc1cccc(OC(C)C(=O)Nc2ccc(N3CCCCC3)cc2)c1 (centres undefined),-0.2,0.1,6.4,-8.6,-1.2,0.0,4.3,-13.7,1.7,7.6
S=c1[nH]cc(-c2ccccc2)[nH]1,1.2,2.9,7.5,6.6,-1.8,98.7*,1.7,3.3,-6.5,10.5
CN(C)/C=C1/Nc2ccccc2C1=O,-0.8,-0.3,x,3.6,x,31.9,x,-6.2,-10.5,-13.9
O=c1cc(N2CCCCCC2)[nH]c(=O)n1-c1ccc(Cl)cc1,-0.2,-1.7,-0.1,2.5,-0.5,-9.5,3.6,-17.9,-0.7,-8.9
COc1ccc(OC)c(C2=NOC(C(=O)Nc3ccc4c(c3)OCCO4)C2)c1 (centres undefined),u,1.2,-4.6,-6.0,-2.4,-4.2,-26.1,-3.2,-2.9,17.3
CS(=O)(=O)n1nc(-c2ccco2)nc1N,-0.8,11.2,14.0,-10.8,-0.7,-8.5,11.9,-5.2,11.3,5.0
O=C(NCc1ccco1)C1CC(=O)N(CCc2ccccc2)C1 (centres undefined),-0.1,3.8,5.1,-5.4,-2.8,1.8,13.5,-17.9,-2.7,-6.2
CC(C)N(C)C(=O)C(=O)c1cccn1-c1cccc(Cl)c1C#N,1.1,2.2,3.3,-4.1,-0.9,-12.9,3.6,-0.7,-2.9,-10.1
Cc1c(-c2csc(N)n2)c2ccccc2n1C,1.6,1.3,-0.6,2.9,8.2,38.4,6.0,8.4,-2.0,0.9
CSc1ccc(C(C(C(=O)c2cccs2)N2CCOCC2)N2CCOCC2)cc1 (centres undefined),-0.1,-5.2,x,-1.3,x,16.3,x,13.6,2.2,1.5
O=C(Cn1nc(-c2ccc(Cl)cc2)ccc1=O)NCCN1CCOCC1,0.5,2.1,-1.0,7.1,-5.4,-13.7,-8.0,-6.6,x,-0.2
CCOC(=O)c1cc(C(=O)c2cccs2)n2ccc(C(C)=O)cc12,-0.2,-0.2,x,0.5,x,-3.3,x,-10.9,9.3,13.5

mol,Bfl-1 A1 inh,LANA-H2B inh,Ecoli rRNA inh,Calb FLC,Ecoli rRNA inh RFP,ALR H2O2 inh,Ecoli rRNA inh OD600,Beta2AR agonist,Beta apoptosis,T cruzi inh
COc1ccc(N=Nc2cnc(C)nc2-c2ccccc2)cc1,-0.3,-6.8,x,u,x,-6.2,x,5.2,6.3,15.0
CCc1cccc(NC(=O)CCCN2C(=O)C(c3ccccc3)Oc3cccnc32)c1 (centres undefined),-0.7,3.5,-5.0,3.9,-0.3,-15.9,-9.5,3.9,0.6,-3.6
CCOC(=O)c1cc2c3ccccc3n(CC)c2nc1N,0.3,-0.7,x,25.1,x,-2.5,x,-0.3,-1.6,5.0
O=C(C[C@@H]1C/C=C\C[C@H](NC(=O)OCC2c3ccccc3-c3ccccc32)C(=O)OC[C@@H]2CCCN2C1=O)NCCO,1.5,-5.3,2.6,x,-2.9,-19.5,7.6,1.5,5.8,x
CCOc1ccc2nc(NS(=O)(=O)c3ccc4c(c3)n(C)c(=O)n4C)sc2c1,0.5,0.8,x,11.7,x,-3.0,x,-12.2,-0.8,-12.6
Cc1nc2cc3nc(C)sc3cc2s1,-0.1,-3.6,x,27.9,x,-24.3,x,3.9,1.2,6.7
C=CCN1C(=S)N[C@@H]2CS(=O)(=O)C[C@@H]21,0.3,-0.7,19.4,-1.5,0.2,x,2.9,3.6,-9.1,-7.4
CCCCCNC(=O)N[C@H](C(=O)O)C(C)C,1.5,-2.3,x,-1.5,x,2.0,x,-3.3,-6.8,-2.8
Cc1nn(Cc2c(Cl)cccc2Cl)c(Cl)c1/C=C/C(=O)OCC(=O)NCC(F)(F)F,-0.4,4.2,x,-4.1,x,x,x,5.0,-5.4,17.5
O=C(NC1CCCC1)C(c1ccco1)N(C(=O)c1ccco1)c1ccccc1 (centres undefined),0.4,-3.2,4.0,5.7,-3.2,-8.6,2.0,9.4,-8.0,2.9
COCC1CCN(C(=O)C2CCC(=O)N(CC3CCCCC3)C2)CC1 (centres undefined),1.2,5.2,2.7,2.0,-1.0,1.2,2.6,-3.3,-5.0,-12.3
N#Cc1nc(COc2ccc(Cl)cc2Cl)oc1N1CCN(c2ccccc2)CC1,-0.1,4.6,x,u,x,3.4,x,-12.9,-1.1,19.1
CCC1CN(C(=O)N2CCC(C(=O)Nc3ccccc3F)CC2)c2ccccc2O1 (centres undefined),1.3,4.1,7.8,-14.7,0.5,-5.9,7.1,6.6,8.6,-1.6
COC(CNC(=O)c1ccc2c(c1)nc(C)n2-c1ccc(F)c(F)c1)OC,0.0,-0.5,x,-6.2,x,-12.0,x,-5.4,-3.0,-20.2
N#C/C(=C/Nc1ccccc1C(=O)O)C(N)=O,-0.2,1.4,9.3,-1.2,4.1,x,5.7,-5.1,-0.3,8.2
CCOc1ccc(-c2c(C(=O)N/N=C/c3cccs3)nnn2-c2nonc2N)cc1,-0.5,3.0,-0.3,6.0,3.8,0.4,-4.9,-11.8,1.8,5.0
Cc1cc(C)c2c(CC(=O)O)coc2c1,u,2.3,2.1,-10.2,-2.7,0.0,-1.2,-7.8,-2.7,4.4
CC(C)(C)SCCNC(=O)c1ccc(CN2CCc3ccccc3C2)cc1,-0.4,-0.4,-12.9,-7.7,-2.9,x,-10.0,-9.0,-1.4,26.9
CC[C@@]12C(=O)N(c3ccc(C)cc3)C(=O)N1[C@H](c1ccc(OC)cc1)[C@@H]1C(=O)N(C(C)(C)C)C(=O)[C@@H]12,-0.2,0.4,2.1,-2.9,-7.1,-10.8,-3.8,-3.2,6.2,12.2
